FGF22 binding = FGF22 (human) thermal shift binding; Q9HCT0; recombinant FGF22 thermal shift, SYPRO orange fluorescence; percent of sucrose octasulfate shift, DMSO zero; calls only at 9.99 µM; 340,000 tested, 1.5% active; AID 651658;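 active = melting point raised past a set limit in the mean and every replicate; inconclusive = no clear call; three in four hits are not shown here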
Target sequence (Q9HCT0 whole entry, looked up): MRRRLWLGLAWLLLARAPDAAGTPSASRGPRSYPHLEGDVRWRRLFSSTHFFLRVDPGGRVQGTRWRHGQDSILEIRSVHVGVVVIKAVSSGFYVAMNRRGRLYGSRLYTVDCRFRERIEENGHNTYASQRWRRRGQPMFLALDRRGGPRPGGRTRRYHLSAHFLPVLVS
AF4-AF9 inh = blocks AF4 peptide binding to human AF9; P42568; inhibition, % at 10 µM; AID 651704; 350,000 tested, 0.47% active; AlphaScreen, biotin-AF4 peptide binding to FLAG-AF9;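 active = every replicate reaching a set inhibition limit, whatever the replicate mean, cut at about 25% in these data; inconclusive = mean inhibition reaches that limit but some replicates miss it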;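 note: 0% = plate neutral control median and 100% = total signal loss; the record names both 10 and 1 µM as test concentration; the first replicate is given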
Target sequence (P42568 whole entry, looked up): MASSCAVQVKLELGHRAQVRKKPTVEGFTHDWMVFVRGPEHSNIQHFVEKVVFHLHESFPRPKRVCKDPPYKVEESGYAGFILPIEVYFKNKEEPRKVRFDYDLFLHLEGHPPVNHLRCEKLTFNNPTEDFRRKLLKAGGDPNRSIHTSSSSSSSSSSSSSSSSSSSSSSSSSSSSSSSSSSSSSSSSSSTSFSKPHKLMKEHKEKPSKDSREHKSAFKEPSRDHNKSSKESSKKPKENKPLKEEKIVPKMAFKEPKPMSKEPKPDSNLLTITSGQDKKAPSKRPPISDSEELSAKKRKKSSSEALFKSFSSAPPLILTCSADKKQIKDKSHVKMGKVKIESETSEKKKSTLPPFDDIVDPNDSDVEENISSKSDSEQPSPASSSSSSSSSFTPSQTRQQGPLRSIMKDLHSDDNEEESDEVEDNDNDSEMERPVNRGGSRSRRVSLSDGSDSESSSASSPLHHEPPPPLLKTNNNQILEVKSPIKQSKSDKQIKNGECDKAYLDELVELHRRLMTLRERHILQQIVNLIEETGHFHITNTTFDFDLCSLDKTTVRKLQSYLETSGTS
Beta apoptosis = beta cell apoptosis inhibition; INS-1E cytokine-induced death, ATP luminescence, 48 h; percent of positive-control rescue, neutral wells zero; protection from apoptosis, % (concentration not given with the values); 300,000 tested, 0.8% active; AID 435005;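 active = all replicates at 75% or more, or half of them and the mean; inconclusive = half reach 75% but not the mean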;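 note: 0% = cytokine-treated negative control wells and 100% = positive control rescue; higher means more ATP so stronger rescue from cytokine killing; wells of about 40 µL received 100 nL stock; the first replicate is given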
T cruzi inh = blocks replication of Trypanosoma cruzi; 300,000 tested, 1.4% active; T. cruzi beta-gal in NIH3T3, luminescence, 90 h; inhibition, % (test concentration not listed);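 active = mean inhibition across valid replicates above about 55%, limit read from the data; inconclusive = mean below that limit but half or more replicates reach it; inactive = mean below it, under half of replicates reach it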;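 note: signal also drops with host cell toxicity which is not excluded here; 0% = plate median of DMSO wells and 100% = zero luminescence signal; higher percent means less beta-gal luminescence so fewer parasites; stock transfer was 50 nL into about 50 µL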
ALR inh = human ALR oxidase inhibition via reduced H2O2. inhibition, % (test concentration not listed). purified ALR, DTT oxidation, H2O2 HRP-luminol luminescence. 290,000 tested, 3.8% active;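 active = mean and each replicate at 75% or more; inconclusive = only one of the two met; inactive = neither met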;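 note: stock transfer was 7.5 nL into about 7.5 µL; 0% = neutral wells and 100% = wells with inactivated enzyme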
Target sequence (P55789 whole entry, looked up): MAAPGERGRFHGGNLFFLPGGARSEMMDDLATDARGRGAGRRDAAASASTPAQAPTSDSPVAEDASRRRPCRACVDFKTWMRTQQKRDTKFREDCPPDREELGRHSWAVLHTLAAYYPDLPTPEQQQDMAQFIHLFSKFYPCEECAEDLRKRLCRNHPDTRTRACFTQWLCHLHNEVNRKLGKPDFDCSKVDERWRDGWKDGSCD
RanGTP-Imp inh = disruptors of Ran-importin-beta complex formation – biochemical, FRET, CFP-Ran, YFP-importin-beta, homogeneous, primary screen. cell-free CFP-Ran/YFP-importin-beta FRET ratio. inhibition, % (concentration not given with the values). 300,000 tested, 1.1% active;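 active = most replicates above 15%; inconclusive = exactly half above 15%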;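 note: 0% = DMSO wells and 100% = Ran loaded with GDP instead of GTP; wells of about 40 µL received 100 nL stock; the first replicate is given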
Calb FLC = affects C. albicans growth with fluconazole | C. albicans CaCi-2 (fluconazole-resistant clinical isolate) + fluconazole, Alamar Blue growth, 48 h | growth inhibition, % (no concentration beside the values) | 300,000 tested, 0.57% active | AID 1979;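 active = most replicates above 75%; inconclusive = exactly half above 75%; inactive = most below 75%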;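 note: all wells also contain fluconazole at 8 µg/ml as a sub-toxic cotreatment; 0% = median of DMSO wells and 100% = median of geldanamycin control wells; wells of about 8 µL received 7.5 nL stock; the first replicate is given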
rRNA inh HTS = inhibitors of bacterial rRNA selective over humanized ribosomes | GFP signal change (wild-type ribosome), % (no concentration beside the values) | E. coli WT GFP vs humanized-ribosome RFP mutants, fluorescence, 24 h; hits give low values; DMSO median 0, no signal -100 | AID 720706 | 350,000 tested, 1.6% active;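 active = significant combined selectivity score with lowered wild-type GFP, culture density cut under 30%, mutant RFP and density less affected; inactive = any of these conditions unmet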; note: one replicate is shown; some compounds called inactive have numbers as strong as hits
rRNA inh HTS OD600 = also measured in rRNA inh HTS; calls as there; OD600 change, %; measured here: OD600 growth;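 optical density of the mix in the first replicate; 0 = DMSO median and -100 = no signal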
rRNA inh HTS RFP = second read-out of rRNA inh HTS, no call of its own (marks repeat the call); RFP signal change, %; measured here: RFP humanized mutant strains;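 first replicate; 0 = DMSO median and -100 = no signal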
Starred values were filed as active, the others as inactive. Some of the compounds tested, so the mix of outcomes need not match the whole.

Results for Cc1ccc(S(=O)(=O)NCc2ccc(C(=O)NCCc3ccc(S(N)(=O)=O)cc3)cc2)cc1 ?
FGF22 binding: inactive; AF4-AF9 inh: -3.4; Beta apoptosis: 0; T cruzi inh: -5; ALR inh: -1; RanGTP-Imp inh: 5.3; Calb FLC: -8; rRNA inh HTS: -2; rRNA inh HTS OD600: 12; rRNA inh HTS RFP: 0.9

What do the screens show for `COc1ccc2oc(C(=O)N3CCc4ccccc43)c(C)c2c1`?
FGF22 binding: inactive; AF4-AF9 inh: -2.3; Beta apoptosis: 17; T cruzi inh: 25; ALR inh: -1; RanGTP-Imp inh: 0.6; Calb FLC: 8; rRNA inh HTS: 2; rRNA inh HTS OD600: -1; rRNA inh HTS RFP: 4.2

What do the screens show for `O=C(Nc1ccc(Nc2ccccc2)cc1)c1ccc(Cl)cc1`?
FGF22 binding: inactive; AF4-AF9 inh: 1.7; Beta apoptosis: 14; T cruzi inh: 13; ALR inh: 12; RanGTP-Imp inh: -1.8; Calb FLC: 26; rRNA inh HTS: -49; rRNA inh HTS OD600: -71; rRNA inh HTS RFP: -13

What do the screens show for `CC(Sc1nnc(Cc2cccs2)n1C1CCCCC1)C(=O)N1CCc2ccccc21` (stereo not drawn)?
Beta apoptosis: 4; T cruzi inh: 13; ALR inh: -2; RanGTP-Imp inh: 2.6; Calb FLC: -3

Results for COc1ccc(Nc2oc(COc3ccc(Cl)cc3)nc2C#N)cc1 ?
Beta apoptosis: 3; T cruzi inh: 38; ALR inh: 6; RanGTP-Imp inh: 3.2; Calb FLC: -8

Results for CCOc1ccc(NC(=O)CSc2nc(NS(=O)(=O)c3ccc(C)cc3)cc(=O)[nH]2)cc1 ?
FGF22 binding: inactive; AF4-AF9 inh: -12; T cruzi inh: 3; RanGTP-Imp inh: -1.4; Calb FLC: 3; rRNA inh HTS: 4; rRNA inh HTS OD600: 10; rRNA inh HTS RFP: -1.8

How did O=C(Nc1ccc(CN2CCOCC2)cc1)c1cc2ccccc2o1 do in these assays?
Beta apoptosis: 5; T cruzi inh: -2; ALR inh: -8; RanGTP-Imp inh: 3.2; Calb FLC: inconclusive

How did CCN1CCN(S(=O)(=O)c2ccc(OC)c(NC(=O)c3ccccc3F)c2)CC1 do in these assays?
FGF22 binding: inactive; AF4-AF9 inh: 1.3; T cruzi inh: -8; ALR inh: -10; RanGTP-Imp inh: -0.6; Calb FLC: 4; rRNA inh HTS: -21; rRNA inh HTS OD600: -35; rRNA inh HTS RFP: -4.7

Results for CCS(=O)(=O)c1nc(S(=O)(=O)c2ccc(Cl)cc2)c(N2CCCC2)s1 ?
FGF22 binding: inactive; AF4-AF9 inh: -0.1; Beta apoptosis: -10; T cruzi inh: 8; ALR inh: -5; RanGTP-Imp inh: inconclusive; Calb FLC: 2; rRNA inh HTS: 4; rRNA inh HTS OD600: 22; rRNA inh HTS RFP: 2.6

Results for CC(C)(C)NC(=O)C(=O)NN=C1CCCCCC1 ?
FGF22 binding: inactive; AF4-AF9 inh: 0.3; Beta apoptosis: -4; T cruzi inh: -18; ALR inh: -4; RanGTP-Imp inh: -4.6; Calb FLC: 8; rRNA inh HTS: 16; rRNA inh HTS OD600: 3; rRNA inh HTS RFP: 0.2

Results for CCC(C)(C)C(=O)Nc1ncc(S(=O)(=O)c2ccc([N+](=O)[O-])cc2)s1 ?
Beta apoptosis: 18; T cruzi inh: 39; ALR inh: -8; RanGTP-Imp inh: 0.7; Calb FLC: -5

Results for CCN(CC(=O)Nc1cc(C)c(Cl)cc1OC)CC(=O)NC1CCS(=O)(=O)C1 (stereo not drawn) ?
FGF22 binding: inactive; AF4-AF9 inh: 1.7; Beta apoptosis: -1; T cruzi inh: -7; ALR inh: 16; RanGTP-Imp inh: -1.6; Calb FLC: 14; rRNA inh HTS: 6; rRNA inh HTS OD600: 4; rRNA inh HTS RFP: -1.2

How did COc1ccc(N2CC(C(=O)Nc3ccc(S(=O)(=O)Nc4nccs4)cc3)CC2=O)c(OC)c1 (stereo not drawn) do in these assays?
FGF22 binding: inactive; AF4-AF9 inh: 2.2; Beta apoptosis: -3; ALR inh: -1; rRNA inh HTS: 21; rRNA inh HTS OD600: 20; rRNA inh HTS RFP: 1.8

What do the screens show for `COc1cc(C=NNC(=O)Cn2nc(C)cc2C)ccc1OC(=O)C1CC1`?
FGF22 binding: inactive; AF4-AF9 inh: -5.6; Beta apoptosis: 2; ALR inh: 27; rRNA inh HTS: 2; rRNA inh HTS OD600: 4; rRNA inh HTS RFP: -2.3

Results for CCCCCc1c(O)nc(SCCN(C)C)[nH]c1=O ?
FGF22 binding: inactive; AF4-AF9 inh: 4.2; Beta apoptosis: 4; T cruzi inh: -8; ALR inh: 22; RanGTP-Imp inh: 5.1; Calb FLC: -6; rRNA inh HTS: 11; rRNA inh HTS OD600: 3; rRNA inh HTS RFP: -1.0

Results for COc1ccc(C)cc1NC(=O)CSc1nnc(-c2cc3cccc(OC)c3o2)n1N ?
Beta apoptosis: -2; T cruzi inh: 23; ALR inh: -10; RanGTP-Imp inh: 2.6; Calb FLC: 8

How did Cc1cc(Sc2nccn2C)ncc1[N+](=O)[O-] do in these assays?
FGF22 binding: inactive; AF4-AF9 inh: -0.8; Beta apoptosis: -4; T cruzi inh: -13; ALR inh: -10; RanGTP-Imp inh: -2.9; Calb FLC: 0; rRNA inh HTS: 12; rRNA inh HTS OD600: 2; rRNA inh HTS RFP: 5.9

Results for O=[N+]([O-])c1cccnc1Oc1ccc(C2SCCS2)cc1 ?
FGF22 binding: inactive; AF4-AF9 inh: 2.5; Beta apoptosis: 3; T cruzi inh: -1; ALR inh: -11; RanGTP-Imp inh: -1.4; Calb FLC: -4; rRNA inh HTS: 7; rRNA inh HTS OD600: 4; rRNA inh HTS RFP: 3.1

Results for O=C(Nc1ccccc1)c1cccc(S(=O)(=O)N2CCCCC2)c1 ?
Beta apoptosis: -5; T cruzi inh: -14; ALR inh: -5; RanGTP-Imp inh: 10; Calb FLC: -33

Results for CSC(=NCc1cccnc1)NS(=O)(=O)c1cccs1 ?
Beta apoptosis: -13; T cruzi inh: -9; ALR inh: -36; RanGTP-Imp inh: -4.2; Calb FLC: -5

The closing three records of the part before lead into the next.
Results for O=[N+]([O-])c1cccnc1Oc1ccc(C2SCCS2)cc1 ?
FGF22 binding: inactive; AF4-AF9 inh: 2.5; Beta apoptosis: 3; T cruzi inh: -1; ALR inh: -11; RanGTP-Imp inh: -1.4; Calb FLC: -4; rRNA inh HTS: 7; rRNA inh HTS OD600: 4; rRNA inh HTS RFP: 3.1

Results for O=C(Nc1ccccc1)c1cccc(S(=O)(=O)N2CCCCC2)c1 ?
Beta apoptosis: -5; T cruzi inh: -14; ALR inh: -5; RanGTP-Imp inh: 10; Calb FLC: -33

Results for CSC(=NCc1cccnc1)NS(=O)(=O)c1cccs1 ?
Beta apoptosis: -13; T cruzi inh: -9; ALR inh: -36; RanGTP-Imp inh: -4.2; Calb FLC: -5

How did COc1ccc(OCc2nnc(SCC(=O)Nc3ccccc3Cl)o2)cc1 do in these assays?
FGF22 binding: inactive; AF4-AF9 inh: -3.2; Beta apoptosis: -6; T cruzi inh: 3; ALR inh: -4; RanGTP-Imp inh: 2.2; Calb FLC: 1; rRNA inh HTS: -1; rRNA inh HTS OD600: 4; rRNA inh HTS RFP: -1.4

How did COc1cc(C(=S)N2CCOCC2)cc(OC)c1OC(=O)c1cc([N+](=O)[O-])c(C)c([N+](=O)[O-])c1 do in these assays?
Beta apoptosis: 4; T cruzi inh: -7; ALR inh: -5; RanGTP-Imp inh: inconclusive; Calb FLC: 4

What do the screens show for `CN(CCNC(=O)c1ccc(N2CCCC2=O)cc1)CCc1ccccc1`?
Beta apoptosis: -4; T cruzi inh: 52; ALR inh: -12; RanGTP-Imp inh: 2.1; Calb FLC: 0

How did CC(C)(C)NC(=O)CN1CCN(C(=O)CCl)CC1 do in these assays?
FGF22 binding: inactive; AF4-AF9 inh: -2.3; Beta apoptosis: -14; ALR inh: 15; Calb FLC: -24; rRNA inh HTS: 19; rRNA inh HTS OD600: 21; rRNA inh HTS RFP: 3.1

Results for COc1cc(CNCCCN2CCOCC2)cc(Br)c1OCC(=O)N1CCCCC1 ?
FGF22 binding: inactive; AF4-AF9 inh: -45; Beta apoptosis: 14; T cruzi inh: 49; ALR inh: 2; RanGTP-Imp inh: -3.6; Calb FLC: -17; rRNA inh HTS: 12; rRNA inh HTS OD600: 4; rRNA inh HTS RFP: 1.7

Results for O=C1CC(Sc2ncn[nH]2)C(=O)N1c1ccccc1 (stereo not drawn) ?
Beta apoptosis: -16; T cruzi inh: 23; ALR inh: 0; RanGTP-Imp inh: -1.1; Calb FLC: -1

Results for O=C(Nc1ccc(NC(=O)C2CC2)nc1)c1cnccn1 ?
FGF22 binding: inactive; AF4-AF9 inh: -2.9; Beta apoptosis: -3; T cruzi inh: 5; ALR inh: -13; RanGTP-Imp inh: 0.8; Calb FLC: 13; rRNA inh HTS: 11; rRNA inh HTS OD600: 8; rRNA inh HTS RFP: -0.5

Results for Cc1cc2ncn(-c3ncnc4sc(C)c(C)c34)c2cc1C ?
Beta apoptosis: -7; T cruzi inh: 1; ALR inh: 1; RanGTP-Imp inh: 5.1; Calb FLC: 2

Results for COc1ccc(OC)c(S(=O)(=O)N2CCC(C(=O)Nc3cc(C)ccc3C)CC2)c1 ?
Beta apoptosis: 21; T cruzi inh: 0; ALR inh: -4; RanGTP-Imp inh: 3.5; Calb FLC: 6

Results for Cc1ccsc1C(=O)NCc1ccc(F)cc1 ?
FGF22 binding: inactive; AF4-AF9 inh: -14; Beta apoptosis: -1; T cruzi inh: -12; ALR inh: -13; RanGTP-Imp inh: 1.7; Calb FLC: 17; rRNA inh HTS: 5; rRNA inh HTS OD600: 2; rRNA inh HTS RFP: -0.3

How did O=C(C1CC1)N1CCc2cc(S(=O)(=O)N3CCOCC3)ccc21 do in these assays?
Beta apoptosis: 6; T cruzi inh: -5; ALR inh: -6; RanGTP-Imp inh: 1.0; Calb FLC: -3

How did Cc1cccc(OCC(O)CN2CCOCC2)c1 (stereo not drawn) do in these assays?
FGF22 binding: inactive; AF4-AF9 inh: -2.8; Beta apoptosis: -13; T cruzi inh: -12; ALR inh: -3; RanGTP-Imp inh: -2.6; Calb FLC: 13; rRNA inh HTS: -5; rRNA inh HTS OD600: 2; rRNA inh HTS RFP: -0.6

How did C=CCN1C(=O)c2ccc(C(=O)N(C)CC(=O)Nc3ccc(OCC)c(OCC)c3)cc2C1=O do in these assays?
FGF22 binding: inactive; AF4-AF9 inh: 1.7; Beta apoptosis: 3; T cruzi inh: -5; RanGTP-Imp inh: -4.7; Calb FLC: -2; rRNA inh HTS: 7; rRNA inh HTS OD600: 14; rRNA inh HTS RFP: -0.8

How did C=CCOc1ccccc1OCC(O)CNC(C)C (stereo not drawn) do in these assays?
FGF22 binding: inactive; AF4-AF9 inh: -0.7; Beta apoptosis: 1; ALR inh: -66

Source: PubChem
